BJeLR viab HTS: lowers viability of BJeLR cells; BJeLR fibroblasts viability, CellTiterGlo ATP luminescence, 48 h; HRASV12, hTERT and SV40 LT/ST transformed; viability loss activity score, % (concentration not given with the values); 30,000 compounds, 0.64% hits; AID 2275; in the data active means viability loss activity score above about 50%; about a fifth of its hits are not listed in these tables;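 further: higher score means fewer live cells and less ATP luminescence; stock transfer was 50 or 100 nL into about 30 µL; 0% = vehicle wells and 100% = a reference killing control; one replicate is shown; the record names a cut of 85%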
A1 inh: blocks A1 activity; MEF A1-2A-BIM cells, caspase-Glo luminescence, 3 h; percent of clofoctol signal, DMSO as zero; caspase activation, % (no concentration beside the values); 21,000 compounds, 0.51% hits;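 active means most replicate scores above 10, or exactly half above 10 with mean activity above 10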;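 further: effector caspase 3 and 7 activity cleaving a DEVD luciferin substrate; 50 nL library stock added to about 30 µL; numbers are from one replicate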
Numbers without * were called inactive; x = not tested or not shown. The list is partial. The share of hits here may be higher or lower than overall.

Order of results – BJeLR viab HTS | A1 inh
- C[C@H]1CN([C@@H](C)CO)C(=O)c2cc(NC(=O)Nc3ccc(C(F)(F)F)cc3)ccc2O[C@H]1CN(C)Cc1ccc(C(=O)Nc2ccccc2N)cc1
  -2.7 | x
- Cc1ccsc1C(N)=S
  3.1 | -0.8
- C[C@H](CO)N1C[C@H](C)[C@H](CN(C)S(C)(=O)=O)Oc2ccc(NC(=O)CCC(F)(F)F)cc2C1=O
  -2.0 | 0.5
- COC(=O)c1ccc(S(=O)(=O)N2CCN(c3ccc(C(F)(F)F)cn3)CC2)n1C
  0.0 | -1.1
- CCSc1nc2sc3c(c2c(=O)n1-c1ccc(OC)cc1)CC(C(C)C)OC3 (stereo not drawn)
  3.9 | 0.3
- FC(F)(F)c1ccnc(Oc2ccc(C3=NCCS3)cc2)c1
  1.4 | -6.0
- COc1ccc(-c2cc(=O)c3c(OC)cc(OC)cc3o2)cc1
  -2.7 | -3.1
- C[C@@H]1CN([C@H](C)CO)C(=O)c2cccc(NS(C)(=O)=O)c2O[C@H]1CN(C)Cc1ccc(Cl)c(Cl)c1
  -6.5 | x
- CC(C)(C)c1cc(N)n2nc(C(C)(C)C)cc2n1
  3.3 | x
- C[C@@H]1CN([C@@H](C)CO)C(=O)c2cc(NS(C)(=O)=O)ccc2O[C@@H]1CN(C)Cc1ccccc1
  6.7 | 0.5
- Cc1ccccc1OCCn1cc(/C(N)=N/O)c2ccccc21
  7.5 | x
- C[C@H]1CN([C@@H](C)CO)C(=O)c2cccc(NC(=O)c3nc4ccccc4s3)c2O[C@H]1CN(C)S(=O)(=O)c1cn(C)cn1
  1.6 | x
- O=C(NCc1ccc2c(c1)CCO2)c1ccc2nsnc2c1
  -5.9 | 0.0
- COC(C(=O)NCc1ccc(Cl)cc1Cl)c1ccccc1 (stereo not drawn)
  -3.0 | 0.0
- C[C@@H]1CN([C@H](C)CO)C(=O)c2cc(NC(=O)CCCN(C)C)ccc2O[C@@H]1CN(C)S(=O)(=O)c1ccccc1
  1.4 | -0.4
- Cc1cs/c(=N\C(=S)Nc2ccccc2)n1C
  -2.2 | -5.8
- C[C@@H]1CN([C@@H](C)CO)C(=O)c2cccc(NC(=O)c3ccc(-c4nccs4)cc3)c2O[C@H]1CN(C)C(=O)Nc1ccc2c(c1)OCO2
  -3.7 | x
- C[C@H]1CN([C@@H](C)CO)C(=O)c2cccc(NC(=O)Nc3ccccc3)c2O[C@H]1CN(C)C(=O)Nc1ccc(C(F)(F)F)cc1
  0.7 | x
- O=S(=O)(NCCc1ccccc1)c1ccccc1
  -4.5 | -0.7
- COc1cc2sc(C)nc2c2ccccc12
  -6.5 | -0.1
- Cc1ccc(CNC(=O)C2CCN(S(C)(=O)=O)CC2)cc1
  -2.9 | 0.2
- O=S(=O)(CCc1ccncc1)c1ccccc1
  -2.5 | -0.1
- O=C(CCCCCC/C=C/c1ccc2c(c1)OCO2)N1CCCCC1
  7.9 | -1.0
- O=C(Nc1ccc(Br)cc1)c1ccc2nsnc2c1
  7.1 | -1.2
- Cc1ccccc1N1C(=O)c2cc(S(N)(=O)=O)c(Cl)cc2NC1C (stereo not drawn)
  4.1 | -0.6
- FC(F)(F)c1cccnc1N1CCNC1=S
  -1.5 | x
- COC(=O)CSc1nc2ccccc2[nH]1
  2.3 | -1.1
- CC(C)NC(=O)N(C)C[C@@H]1Oc2ccc(NS(=O)(=O)c3ccccc3)cc2C(=O)N([C@@H](C)CO)C[C@@H]1C
  0.4 | 0.1
- CCOc1cc(C(=O)NCc2ccc3[nH]c(C)cc3c2)cc(OCC)c1OCC
  -2.4 | x
- O=C1SCCC1NS(=O)(=O)c1ccccc1 (stereo not drawn)
  8.6 | 0.3
- C[C@@H]1CN([C@H](C)CO)C(=O)c2cc(N(C)C)ccc2O[C@@H]1CN(C)C(=O)Nc1ccc2c(c1)OCO2
  2.1 | -0.3
- NC(=O)CSc1nc2ccccc2s1
  0.9 | -0.5
- CSc1nc(COc2ccc(C(C)(C)C)cc2)nc(-n2cccc2)c1C#N
  -2.3 | 0.1
- C[C@H](CO)N1C[C@H](C)[C@@H](CN(C)CC2CCCCC2)Oc2ccc(NC(=O)Nc3ccc(C(F)(F)F)cc3)cc2C1=O
  0.7 | 0.5
- c1ccc(-c2nnc(-c3cccnc3)o2)cc1
  -2.3 | -3.8
- CC(C)NC(=O)Nc1cccc2c1O[C@@H](CN(C)C(=O)NC(C)C)[C@@H](C)CN([C@@H](C)CO)C2=O
  -2.3 | x
- CC1(C)CCc2cc(-c3ccn(S(=O)(=O)c4cccc(C(F)(F)F)c4)n3)ccc2O1
  -5.2 | -0.3
- C[C@@H]1CN([C@H](C)CO)C(=O)c2cccc(NS(=O)(=O)c3cn(C)cn3)c2O[C@H]1CN(C)C(=O)NC1CCCCC1
  0.0 | x
- COc1ccc(CNC(=O)c2cnc3scc(C)n3c2=O)cc1
  1.8 | x
- Cc1noc(C)c1S(=O)(=O)N(C)C[C@H]1Oc2c(cccc2N(C)C)C(=O)N([C@H](C)CO)C[C@@H]1C
  -2.8 | x
- Cc1ccc(Cl)cc1NC(=O)Cn1c(=O)n(CCc2c[nH]c3ccccc23)c(=O)c2cccnc21
  -2.0 | x
- CC(C)NC(=O)N(C)C[C@H]1Oc2ccc(NS(=O)(=O)c3ccc(F)cc3)cc2C(=O)N([C@@H](C)CO)C[C@H]1C
  5.4 | -0.1
- COc1ccc(CN(C)C[C@H]2Oc3c(NC(=O)Nc4c(C)noc4C)cccc3C(=O)N([C@@H](C)CO)C[C@@H]2C)cc1
  -5.4 | x
- C[C@H](CO)N1C[C@H](C)[C@H](CN(C)Cc2ccncc2)Oc2ccc(NS(C)(=O)=O)cc2C1=O
  -3.2 | -0.2
- O=C(CNC(=S)N(Cc1ccccc1)Cc1cccnc1)NC1CC1
  -2.1 | 0.1
- C=CCN1C(=O)/C(=C2\SC(=Nc3ccccc3)N(c3ccccc3)C2=O)c2ccccc21
  6.0 | -0.6
- Cc1ccc(S(=O)(=O)N(C)C[C@H]2Oc3ccc(N(C)C)cc3C(=O)N([C@H](C)CO)C[C@@H]2C)cc1
  -2.6 | -0.5
- COC(=O)c1cc2c(C)nn(-c3ccccc3)c2s1
  -5.3 | 0.4
- COc1ccc2cc(C#N)c(Cl)nc2c1
  0.8 | x
- NNC(=O)C1CCC(c2ccc(Cl)cc2)CC1 (stereo not drawn)
  1.7 | 0.8
- CCOC(=O)C1C(=O)Oc2ccc(Br)cc2C1C1(C(=O)OC)CCCCC1 (stereo not drawn)
  3.1 | x
- N#Cc1ccccc1NS(=O)(=O)c1ccccc1
  0.9 | 1.0
- C[C@H](CO)N1C[C@H](C)[C@H](CN(C)C)Oc2c(NS(=O)(=O)c3cccs3)cccc2C1=O
  -1.2 | x
- C[C@@H]1CN([C@H](C)CO)C(=O)c2cc(NS(=O)(=O)c3cccs3)ccc2O[C@@H]1CN(C)CC1CC1
  0.9 | -0.1
- COc1ccc(S(=O)(=O)Nc2cccc3c2O[C@H](CN(C)Cc2ccc4c(c2)OCO4)[C@@H](C)CN([C@H](C)CO)C3=O)cc1
  3.5 | x
- COc1ccc(CC2CCC3(CC2)NC(=O)c2ccccc2O3)cc1 (stereo not drawn)
  12 | x
- CCN1CCn2c3c(c4cc(Cl)ccc42)CCCC31 (stereo not drawn)
  7.4 | -0.7
- CNC[C@@H]1Oc2c(NC(=O)Nc3ccccc3)cccc2C(=O)N([C@H](C)CO)C[C@@H]1C
  6.4 | x
- CCN(C(=O)CCc1nc(-c2ccccc2F)no1)c1cc(Cl)ccc1OC
  -6.0 | x
- N#Cc1c[nH]c2ccc(NC(=O)/C=C/c3ccc(OC(F)(F)F)cc3)cc12
  4.2 | 0.3

(continued)
Order of results – BJeLR viab HTS | A1 inh
- C[C@H]1CN([C@@H](C)CO)C(=O)c2cccc(NS(=O)(=O)c3ccccc3)c2O[C@@H]1CN(C)C(=O)NC1CCCCC1
  3.1 | x
- C[C@H]1CN([C@@H](C)CO)C(=O)c2cc(NC(=O)C3CC3)ccc2O[C@H]1CN(C)Cc1ccc(Oc2ccccc2)cc1
  3.9 | 0.4
- N#Cc1cc2c(N)c(C(=O)Nc3ccccc3)sc2nc1N
  4.2 | -0.5
- O=C(O)CCC(=O)N(Cc1ccccc1)Cc1cn(-c2ccccc2)nc1-c1cccnc1
  -3.8 | -0.1
- CC(=O)/C=C\[C@@H]1[C@@]2(C)CCCC(C)(C)C2CC[C@@]1(C)O (stereo partly drawn)
  47 | 1.3
- C[C@@H]1CN([C@H](C)CO)C(=O)c2cc(NC(=O)C3CC3)ccc2O[C@@H]1CN(C)Cc1ccc(C(F)(F)F)cc1
  4.8 | -0.6
- CCOC(=O)COc1ccc2c(c1)C(=O)CC(C)(C)O2
  0.3 | 1.1
- C[C@H]1CN([C@@H](C)CO)C(=O)c2cc(NS(C)(=O)=O)ccc2O[C@H]1CN(C)Cc1ccc(Cl)c(Cl)c1
  2.6 | -0.1
- COc1ccc(S(=O)(=O)N(C)C[C@@H]2Oc3c(NC(=O)C4CCCCC4)cccc3C(=O)N([C@@H](C)CO)C[C@@H]2C)cc1
  2.3 | x
- COc1ccc2c(c1)C(C)(CC#N)C(=O)N2C (stereo not drawn)
  -3.0 | 0.6
- C[C@H](CO)N1C[C@H](C)[C@H](CN(C)Cc2ccccc2)Oc2c(NC(=O)NC3CCCCC3)cccc2C1=O
  3.7 | x
- COc1ccc(NC(=O)Nc2cccc3c2O[C@H](CN(C)C(=O)Nc2c(C)noc2C)[C@H](C)CN([C@@H](C)CO)C3=O)cc1
  -1.1 | x
- Cc1noc(C)c1NC(=O)Nc1cccc2c1O[C@H](CN(C)Cc1ccc3c(c1)OCO3)[C@@H](C)CN([C@@H](C)CO)C2=O
  2.6 | x
- CN1CCc2c(sc3c2C(=O)NC(/C=C/c2ccco2)N3)C1 (stereo not drawn)
  -6.9 | 1.1
- c1ccc(CCn2c(CSc3nc4ccccc4o3)nc3ccccc32)cc1
  1.5 | 0.5
- C/C(=C\C=C\C(C)C)CC/C=C(\C)CCOc1c(O)cc2c(c1O)CNC2=O
  -1.3 | 0.3
- Cc1ccc(S(=O)(=O)N2CC3CCC2C3)cc1 (stereo not drawn)
  -1.0 | 1.2
- COc1cc2c(cc1OC)C(=NCCC(=O)O)NC(C)(C)C2
  -3.3 | 0.8
- C[C@@H]1CN([C@H](C)CO)C(=O)c2cccc(NC(=O)Nc3ccccc3)c2O[C@@H]1CN(C)S(=O)(=O)c1cccs1
  2.9 | x
- O=C(CCN1CCC(c2cccs2)=N1)c1cccs1
  1.6 | 0.3
- O=C(/C=C/c1ccco1)Nc1ccc(N2CCCC2)cc1
  6.7 | x
- CCN1CCN(Cc2ccc(NC(=O)Nc3ccccc3)cc2)CC1
  0.1 | x
- COC(=O)c1cc2sccc2n1CC(=O)N(C)c1ccccc1
  -0.5 | 0.6
- CN(C)c1ccc(/C=C2\C(=O)Nc3ccccc32)c2ccccc12
  -0.2 | 0.1
- CCN(CC)CCNC(=O)COc1ccc(OC)cc1
  5.2 | -0.8
- C[C@H]1CN([C@@H](C)CO)C(=O)c2cc(NC(=O)CCC(F)(F)F)ccc2O[C@@H]1CN(C)Cc1ccc(Oc2ccccc2)cc1
  -0.3 | 0.6
- Cc1noc(C)c1S(=O)(=O)Nc1ccc2c(c1)C(=O)N([C@@H](C)CO)C[C@H](C)[C@@H](CN(C)C(=O)Nc1ccc3c(c1)OCO3)O2
  -0.6 | 1.4
- CC1CCN(CC(O)COc2c(F)cc(Br)cc2F)CC1 (stereo not drawn)
  2.0 | -0.1
- CCN1CCc2c(sc3c2C(=O)NC(c2ccc(COc4cccc(C(F)(F)F)c4)o2)N3)C1 (stereo not drawn)
  1.4 | x
- CN(C)c1nc2ccccc2c(=O)s1
  -1.3 | -1.0
- CSc1nc(C=Nc2cccc(Cl)c2)c(O)n1Cc1cccc(Cl)c1
  4.6 | -0.6
- C[C@@H]1CN([C@@H](C)CO)C(=O)c2cccc(NC(=O)NC3CCCCC3)c2O[C@@H]1CN(C)S(=O)(=O)c1ccccc1
  1.7 | x
- CNC[C@@H]1Oc2ccc(N(C)C)cc2C(=O)N([C@H](C)CO)C[C@@H]1C
  -1.1 | -0.1
- C[C@H]1CN([C@@H](C)CO)C(=O)c2cc(NC(=O)c3ccncc3)ccc2O[C@@H]1CN(C)C(=O)Nc1ccc(C(F)(F)F)cc1
  -1.1 | -0.5
- C=C(CO)C(=O)O[C@H]1C[C@@]23O[C@@H]2CC/C(=C/[C@H]2OC(=O)C(=C)[C@H]12)CO[C@@H]3O
  -2.0 | 0.1

Screening data deposited in PubChem by Broad Institute.
